Bioassay records deposited in PubChem by several laboratories.
Bead autofluor: compound fluorescence in toxin protease inhibitor counterscreen. compound autofluorescence counterscreen, microsphere flow cytometry; active compounds read high. 3.1% of 360,000 active. fluorescence intensity (test concentration not listed). AID 624483;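 active = at least 3 SD above the mean of all compounds, about 16000 in these data; inconclusive = too few beads counted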;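 note: 100 nL of 1 mM stock went into each well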
PrP 5UTR inh: inhibition of PrP 5' UTR reporter expression. cell-based PrP 5' UTR mRNA reporter, plate reader. inhibition, % (no concentration beside the values). AID 488862, 2010. 0.35% of 340,000 active;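 active = every replicate at 50% or more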;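 note: 0 = median of the neutral control wells; tested in H4 reporter cells; numbers are from one replicate; inactives centre near -14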
ugtP null kill: growth inhibition of ugtP-null S. aureus, primary screen, RN4220 ugtP deletion, OD600; 16 h; some inactives read as strong as hits; growth inhibition, % (no concentration beside the values); 0.54% of 330,000 active; AID 1259309, 2017;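 active = z-score under -3 and OD600 up to 0.15 on both plates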;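 note: plate controls were untreated wells for no effect and antibiotic for full effect; wells of about 80 µL received 100 nL stock; the first replicate is given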
BJeLR viability: MLPCN primary cell-based screen for lethality selective to Ras in HRASV12 cells; BJeLR (HRASV12) viability, CellTiter-Glo ATP luminescence, 48 h; reference of the scale not given here; inhibition, % (no concentration beside the values); 0.17% of 300,000 active;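 active = replicate mean above 50%; inconclusive = above 50% but judged a plate artefact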;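 note: 50 nL library stock added to about 25 µL; numbers are from one replicate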
Mtb hypoxia rep: PubChem AID 1159583; M. tuberculosis hypoxia-regulated fluorescent reporter, fluorescence; fluorescence inhibition, % (concentration not given with the values); 0.1% of 300,000 active;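 active = 35 to 45% if threefold the growth effect, above 45% if 1.5-fold the growth effect; inactive = the rest, general growth blockers included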;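 note: wells of about 50 µL received 100 nL stock; 0% = vehicle wells and 100% = reference inhibitor wells; whole bacteria with a GFP reporter of the hypoxia response; strong numbers were not always called active; many hits fall short of the cut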
RN4220 kill: growth inhibition of S. aureus RN4220, primary screen, OD600; 16 h; inhibition, % (concentration not given with the values); 0.33% of 330,000 active; AID 1259311, 2017;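 active = z-score of -3 or lower and OD600 up to 0.18 on both plates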;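 note: plate controls were untreated cells for no effect and reference antibiotic for full effect; stock transfer was 100 nL into about 80 µL; one replicate is shown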
Mtb hypoxia rep growth: further read-out of Mtb hypoxia rep, marked with its call; growth inhibition, %; measured here: M. tuberculosis growth (absorbance);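 0% = vehicle and 100% = reference antibiotic; read after six days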
Numbers without * were called inactive; ? = inconclusive; · = not tested or not shown; & = joins results of further samples.

SMILES	Bead autofluor	PrP 5UTR inh	ugtP null kill	BJeLR viability	Mtb hypoxia rep	Mtb hypoxia rep growth	RN4220 kill
Cc1ccc(-c2nnc(N)o2)cc1	2683	-14	-1	-7	-1	1	1.6
CCCC1=[N+](CC(=O)c2ccc(C)cc2)CCn2cccc21	2991	-17	13	-11	7	14	3.2
CCOC(=O)N1CCN(C(=O)/C(=C/c2cccc3ccccc23)NC(=O)c2ccc(OC)cc2)CC1	24028*	-13	2	3	8	1	1.4
COC(=O)c1ccc(Oc2cc(C)nc(SC)n2)cc1	3179	-4	11	20	6	1	5.8
CC(C)(C)NC(=O)C(c1ccncc1)N(C(=O)Cn1nnc(-c2ccc(F)cc2)n1)c1ccc(F)cc1 (stereo not given)	2570	-15	4	6	18	7	0.6
CCC(NS(=O)(=O)c1ccc(OC)cc1)C(=O)O (stereo not given)	8701	4	6	0	2	8	4.2
CCOc1ccc(-c2c(C(=O)N/N=C(\C)c3ccncc3)nnn2-c2nonc2N)cc1	4301	-2	·	-1	·	·	·
NC1=NC(c2ccc(Cl)cc2)n2c(nc3ccccc32)N1 (stereo not given)	2846	-21	6	1	·	·	12
COc1ccc(-n2nnc3c(SCc4ccccc4)ncnc32)cc1	3365	-30	12	1	7	5	8.6
Cc1no[n+]([O-])c1COc1ccc(/C=N/n2nnnc2N)cc1	1968	-30	·	0	·	·	·
COc1ccc(NS(=O)(=O)c2cc(NC(=O)c3ccccc3)ccc2N2CCOCC2)cc1	6289	-4	-1	·	-14	-1	6.6
COc1ccc(CN2CCN(C3CCC3)CC2CCO)cc1C (stereo not given)	3488	-7	-1	4	-9	6	-0.6
CCOc1ccc2nc(SCC(=O)N(C)C3CCS(=O)(=O)C3)[nH]c2c1 (stereo not given)	4353	-13	-6	0	3	4	2.0
O=C(NCc1ccco1)/C(=C\c1ccccc1)NC(=O)c1ccccc1	3517	-14	7	8	15	8	1.4
COc1ccc2oc(=O)c(-c3nc4ccccc4o3)cc2c1	3759	-71	-10	3	15	12	7.5
Cc1ccc(NS(=O)(=O)c2cc([N+](=O)[O-])ccc2NNC(=S)Nc2cccc(Cl)c2)c(C)c1	2510	-12	59	-1	-11	12	84
Cc1ccc(OCc2cc(C(=O)N3CCC(C(O)C(C)C)CC3)no2)cc1C (stereo not given)	5924	-22	-3	-2	5	8	3.7
Cc1cc(=O)[nH]c(NN=Cc2cccc(Br)c2)n1	·	·	3	·	10	14	3.7
COc1ccc(CCNC(=S)NC2CCN(Cc3ccccc3)CC2)cc1OC	4672	-33	-4	3	13	1	2.1
CC12Cc3cn[nH]c3C=C1CCC1C2CCC2(C)C1CCC2(C)O (stereo not given)	4006	-17	6	·	8	9	-0.5
O=C(Cn1c(-c2ccccn2)nc2ccccc21)NCCN1CCOCC1	10160	4	-2	-6	0	12	1.3
CC(C)(C)c1ccc(C(=O)Nc2ccc(CC(=O)O)cc2)o1	9871	72*	4	2	3	9	0.3
CC(C)c1c(C(=O)NN=Cc2ccc(OCc3ccc(F)cc3)cc2)nnn1-c1nonc1N	·	·	6	·	-3	-2	7.0
Cc1c(NC(=O)CN2CCN(c3ccc(F)cc3)CC2)c(=O)n(-c2ccccc2)n1C	2571	-13	14	10	-1	1	-1.4
COc1ccccc1CN1CC(C(=O)NCc2cc(C(C)C)no2)CCC1=O (stereo not given)	·	-14	1	-7	5	1	1.0
(listing goes on)
SMILES	Bead autofluor	PrP 5UTR inh	ugtP null kill	BJeLR viability	Mtb hypoxia rep	Mtb hypoxia rep growth	RN4220 kill
CN(C)CC(C)(C)CNC(=O)CC1C(=O)NCCN1Cc1ccc(-c2ccccc2)cc1 (stereo not given)	4554	-30	3	10	2	3	3.7
CN(C)S(=O)(=O)c1cccc(NC(=O)C2CCN(S(=O)(=O)c3cccs3)CC2)c1	2933	5	12	·	8	5	3.5
Cc1ccc2c(c1)c1cccc3c1n2CCN3CCC(N)=O	2280	-99	·	-6	·	·	·
Cc1noc(C)c1COc1cccc(C(=O)N2CCc3ccccc32)c1	5139	-3	4	7	17	6	1.1
C=CCn1c(O)c(/C=C2\C=Nc3ccccc32)c(=O)[nH]c1=O	5778	·	3	-2	4	17	3.5
Cc1nc2sc(C(c3ccco3)N3CCc4ccccc4C3)c(O)n2n1 (stereo not given)	9349	-24	-2	4	2	-6	0.0
CCOC(=O)c1[nH]c(C)c(C(=O)OCCOc2cccc(C)c2)c1C	1893	-13	3	-1	-1	4	2.9
Cc1ccc(S(=O)(=O)NC(=O)Nc2ncc3c(n2)CC(c2ccco2)CC3=O)cc1 (stereo not given)	2625	-14	-1	·	15	1	4.6
O=C1/C(=C/c2ccccc2O)SC(=S)N1Cc1cccnc1	2163	-36	5	5	-1	8	2.6
Cc1cccc(NC(=O)Nc2cnccn2)c1C	5989	-15	1	5	1	4	1.0
O=C(OCC(=O)N1CCCC1)c1cccc(Br)c1	5918	-31	-7	-8	11	-5	5.4
O=C(CNS(=O)(=O)c1ccc(Cl)c(C(F)(F)F)c1)NC1CCCCCC1	7720	-26	-5	·	-2	2	3.0
O=C(O)c1cccc(CN2C(=O)S/C(=C/c3ccccc3[N+](=O)[O-])C2=O)c1	·	-18	2	3	1	-4	11
O=c1cc(O)c2sc(Nc3cccc(C(F)(F)F)c3)nc2[nH]1	1951	-16	·	8	·	·	·
CN(C)c1ccc(C(=S)N2CCOCC2)cc1Br	2660	-22	5	-2	·	·	-0.1
CCOC(=O)C(CC)C(C)=NNC(=O)c1cccc(C)c1 (stereo not given)	·	·	6	·	7	5	3.0
Cc1ccc(N(C)S(=O)(=O)c2ccc(-c3cc(C)no3)s2)cc1	5867	2	-9	6	-13	-3	6.7
Cc1cc(C)cc(NS(=O)(=O)c2ccc(NC(=O)C3CCCCC3C(=O)O)cc2)c1 (stereo not given)	2440	-14	-5	8	1	7	5.5
Cc1ccc(C)c(N2CCN(C(=O)CCS(=O)(=O)c3ccc4c(c3)oc(=O)n4C)CC2)c1	5490	-15	13	2	16	9	5.6
CCC(=O)NCCc1nc(-c2ccccc2)no1	4244	-22	3	-3	14	5	0.6
Cc1ccc(S(=O)(=O)c2nc(C)c3c(n2)CCC3)cc1	3330	-2	6	7	7	11	5.0
CSc1c(-c2ccccc2)nc2ccc(Cl)cc2c1C(=O)O	6556	-16	5	0	0	6	4.4
O=C(Nc1nc2ccccc2[nH]1)C1CC(=O)N(c2ccc3c(c2)OCCO3)C1 (stereo not given)	4258	-19	-17	-3	·	·	0.9
COC(=O)C1CCN(C(=O)CN2C(=O)c3ccccc3S2(=O)=O)CC1	5547	-24	3	1	-10	-8	-0.5
Cc1nc2ccc(C(=O)O)cc2c2c1CC(CN)O2 (stereo not given)	4217	-32	19	3	5	6	5.1

Two compounds drawn at random from those above:
SMILES	Bead autofluor	PrP 5UTR inh	ugtP null kill	BJeLR viability	Mtb hypoxia rep	Mtb hypoxia rep growth	RN4220 kill
O=C1/C(=C/c2ccccc2O)SC(=S)N1Cc1cccnc1	2163	-36	5	5	-1	8	2.6
Cc1cccc(NC(=O)Nc2cnccn2)c1C	5989	-15	1	5	1	4	1.0

A stretch taken from the entries so far:
SMILES	Bead autofluor	PrP 5UTR inh	ugtP null kill	BJeLR viability	Mtb hypoxia rep	Mtb hypoxia rep growth	RN4220 kill
CSc1c(-c2ccccc2)nc2ccc(Cl)cc2c1C(=O)O	6556	-16	5	0	0	6	4.4
O=C(Nc1nc2ccccc2[nH]1)C1CC(=O)N(c2ccc3c(c2)OCCO3)C1 (stereo not given)	4258	-19	-17	-3	·	·	0.9
COC(=O)C1CCN(C(=O)CN2C(=O)c3ccccc3S2(=O)=O)CC1	5547	-24	3	1	-10	-8	-0.5
Cc1nc2ccc(C(=O)O)cc2c2c1CC(CN)O2 (stereo not given)	4217	-32	19	3	5	6	5.1

(more compounds)
SMILES	Bead autofluor	PrP 5UTR inh	ugtP null kill	BJeLR viability	Mtb hypoxia rep	Mtb hypoxia rep growth	RN4220 kill
Cc1ccnc2nc(C(=O)N3CCN(c4ccc(F)cc4)CC3)nn12	4588	-28	-7	4	·	·	3.1
C=CCC(=O)N1CCCC(CO)(Cc2ccc(F)cc2F)C1 (stereo not given)	3465	-34	2	-12	-4	2	3.0
O=C(c1ccc(-c2ccccc2Cl)o1)N1CCN(c2ccccc2O)CC1	4195	-12	-8	-4	2	-10	10
COCCOC(=O)c1c(N)n(CCCN2CCOCC2)c2nc3ccccc3nc12	·	-4	16	-14	14	11	5.6
CCCCN(C(=O)CC1CCCC1)c1c(N)n(CC(C)C)c(=O)[nH]c1=O	4437	-2	-9	0	-9	-4	-5.4
COc1cc(/C=C2\CCn3c2nc2cc(C(=O)O)ccc2c3=O)ccc1OC(F)F	3674	-14	6	-2	2	-2	6.3
O=C(Nc1ccccc1)C1=CC(C2CCCCC2)CC(OCc2ccc(CO)cc2)O1 (stereo not given)	·	·	11&11	·	14&15	12&3	-6.2&2.0
C/C(=N\NC(=O)C1CC1)c1cccs1	6665	-23	·	-9	·	·	·
CCn1ccnc1CNC(=O)C1CCC(=O)N(Cc2cccc(C(F)(F)F)c2)C1 (stereo not given)	5850	-1	2	3	11	8	1.8
O=C1CC(c2ccccc2Cl)CC(O)=C1C=NCCCO (stereo not given)	4103	-16	2	0	-9	-2	4.7
COc1ccc2c(-c3ccccc3)cc(N3CCOCC3)nc2c1	2822	-27	1	3	16	29	7.3
COc1ccc(CCN(Cc2cccs2)S(=O)(=O)c2ccc(-n3cnnn3)c(OC)c2)cc1OC	10704	·	-2	17	-9	1	5.6
Cc1cc(NC(=O)CSc2nnc(-c3ccccc3F)n2C)no1	2983	-3	7	·	8	-2	6.0
O=C(N/N=C/c1cc2ccccc2nc1Cl)[C@H]1C[C@@H]1c1ccccc1	2495	-19	·	-7	·	·	·
CC(CCc1ccccc1)NC(=O)CCNS(=O)(=O)c1ccccc1 (stereo not given)	5078	-17	-4	-9	3	3	6.1
CCOC(=O)N1CCN(S(=O)(=O)c2ccc(OC)c(OC)c2)CC1	25529*	-6	4	6	1	0	2.1
Cc1cc(C(=O)O)sc1C	7884	·	-3	0	-3	10	1.4
O=C(Cc1cccs1)NN=Cc1ccco1	·	·	0	·	6	1	1.6
Cn1cnc(S(=O)(=O)N2CCN(c3ccc(F)cc3)CC2)c1	5556	·	4	6	-2	3	3.2
Cc1snc2sc(C(=O)c3ccc(Br)cc3)c(N)c12	2799	-59	-19	0	·	·	3.0
COC(=O)c1c[nH]c(=O)c2ccccc12	4018	-10	0	-8	-5	-9	1.6
COc1ccc(NC(=O)CN2CCN(CC(=O)Nc3ccccc3F)CC2)cc1OC	2159	1	2	-1	·	·	4.7
Cc1nc(-c2cccc(NC(=O)COc3ccc(Cl)cc3)c2)cs1	5709	-8	2	-1	6	16	24
O=C(/C=C/c1cccc([N+](=O)[O-])c1)OCC(=O)c1ccccc1	4850	-17	-2	9	15	12	12
O=C(NCc1ccc(-c2nc3ccccc3s2)cc1)c1ccc(Br)o1	2495	-32	-3	-1	5	4	6.2
The results go on.
SMILES	Bead autofluor	PrP 5UTR inh	ugtP null kill	BJeLR viability	Mtb hypoxia rep	Mtb hypoxia rep growth	RN4220 kill
Cc1ccc(Cl)cc1NC(=O)C1COc2ccccc2O1 (stereo not given)	4000	-36	15	-11	22	10	8.8
C#CCOc1c(Cl)cc(/C=C2/C(=O)ON=C2C)cc1OC	3702	-23	-1	8	9	1	1.2
COc1ccc(OCC(=O)N/N=C/c2cccc3cccnc23)cc1	6272	6	·	-6	·	·	·
CC(C)(C)c1ccc(OCCNC(=O)c2ncn[nH]2)cc1	3759	-5	-2	7	·	·	4.3
COc1ccc(C2c3c(-c4ccccc4O)n[nH]c3C(=O)N2Cc2ccco2)cc1 (stereo not given)	4949	-18	-22	0	-18	6	15
O=C(C1CCN(S(=O)(=O)c2ccccc2)CC1)N1CCN(c2ccccc2)CC1	?	2	7	0	19	-39	2.9
O=c1c2nnn(Cc3ccccc3)c2ncn1C/C=C/c1ccccc1	6555	14	-6	-10	1	9	-2.8
COc1ccc(C(C)C)cc1S(=O)(=O)N1CCC(C(=O)N2CCN(C)CC2)CC1	4365	6	4	-9	6	-24	2.0
COc1ccc(S(=O)(=O)N2CCN(C(=O)c3cccs3)CC2)cc1OC	10900	-33	-2	7	12	1	3.8
CC(C)Sc1ccc([N+](=O)[O-])cc1C(=O)Nc1ccncc1	5825	-17	6	3	6	-4	3.6
NS(=O)(=O)c1ccc2nc(NC(=O)Nc3ccc(F)cc3)sc2c1	4541	-31	-8	10	2	-1	3.5
COc1ccc(C(=O)c2ccc3oc(-c4ccc(OC)cc4)c(C#CCCO)c3c2)cc1	3602	-11	5	4	0	4	3.1
Cc1c(-c2nc3ccccc3[nH]2)cnn1C	3631	-1	1	·	2	16	3.6
